# HPGD inh: blocks human HPGD enzyme activity; Potency, µM, for inactives: at the highest dose activity change, negative = inhibition, hits mostly inhibitors; purified HPGD, NADH fluorescence kinetic, PGE2 substrate; P15428; 150,000 tested, 4.3% active; AID 894; active = well fitted inhibition curve with a large enough effect (not every such curve was filed as active); inconclusive = small, poorly fitted or top-dose-only effect, or another doubt; inactive = no such curve, though single readings can be large or run the other way;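 note: top concentration of the series not given in the record; plate controls included wells without enzyme; inactives centre near -10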
# Target sequence (P15428 whole entry, looked up): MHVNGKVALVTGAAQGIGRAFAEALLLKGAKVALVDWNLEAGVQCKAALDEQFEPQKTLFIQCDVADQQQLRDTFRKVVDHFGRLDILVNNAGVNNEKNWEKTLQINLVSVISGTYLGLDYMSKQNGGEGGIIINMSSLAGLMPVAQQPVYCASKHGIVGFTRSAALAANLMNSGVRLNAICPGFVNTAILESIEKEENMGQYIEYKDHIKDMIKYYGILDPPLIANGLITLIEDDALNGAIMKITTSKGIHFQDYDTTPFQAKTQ
#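 NADH formation kinetics: reaction with 30 uM PGE2 and 1 mM NAD+ (final), 20 nM enzyme, Tris-HCl pH 8 with Tween 20, after 15 min compound preincubation at room temperature. Fluorescence change, last versus first of five reads.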
# Numbers without * were called inactive; ? = inconclusive; & = joins results of further samples; [ ] = another dose, or the depositor's remark. % is set by controls: 0 for no effect and ±100 for the full control effect; potency is the fitted concentration of half-maximal effect. Only part of the results is shown, so the mix of outcomes need not match the whole.
SMILES,HPGD inh
CC1(C)O[C@H]2[C@@H](c3[nH]nc4c(=O)[nH]c(=O)[nH]c34)OC[C@H]2O1,-8%
COc1ccc(C)cc1-n1nnnc1SCc1csc(C)n1,-12%
Cc1ccc(C)c(OCCCCn2ccnc2)c1,-5%
C=CCn1c(SC(C)CC)nc(O)cc1=O (stereo unspecified),-3%
COc1ccccc1/C=C(/C(=O)OCC(=O)NCc1ccccc1)c1ccccc1,-18%
OCCN1CCN(CC(O)COc2ccc(-c3ccccc3)cc2)CC1 (stereo unspecified),-15%
O=C(Nc1ccc(C2CCCCC2)cc1)C1CCN(c2ncccn2)CC1,-10%
O=C(O)CSc1ncnc2sc3c(c12)CCC3,?
CCCCNCCCOc1cc(Cl)ccc1Cl,-5%
Cc1c(C(=O)NNS(=O)(=O)c2ccccc2)sc(=S)n1C,-13%
COc1ccc(CCNC(=O)c2sc3cc(C)ccc3c2Cl)cc1,-8%
Cc1cc(-c2nc3c4c5c(sc4[nH]c(=O)n3n2)CCC5)c(C)o1,20µM*
C/C(=N\NC(N)=O)c1cccc(Cl)c1,-6%
Cc1ccc([N+](=O)[O-])cc1NC(=S)NC(=O)CC(C)(C)C,16µM*
O=c1[nH]c2ccccc2nc1NCCN1CCOCC1,-11%
COCCN1C(=O)c2cc(C(=O)Nc3cccc(F)c3)ccc2C1Nc1cccc(F)c1 (stereo unspecified),-8%
Cc1cccc(CN(CC(=O)N/N=C/c2ccco2)S(=O)(=O)c2ccc(Cl)cc2)c1,-14%
CC1(C)C=C(c2ccc(C(=O)O)s2)CC(C)(C)N1,-14%
C=CCn1c(SCC(=O)N2CC(=O)Nc3ccccc32)nc2scc(-c3cccs3)c2c1=O,-16%
CCOC(=O)C1=C(C)Nc2ncnn2C1c1cccnc1 (stereo unspecified),-5%
Cc1cccc(C(=O)CC(=O)c2cc(Cl)ccc2O)c1,16µM*
O=C(CSc1nc2c(sc3ccccc32)c(=O)n1CCc1ccccc1)NCc1ccco1,-20%
CC(=O)c1cc2c(cc1N/C(=N/S(=O)(=O)c1ccc(C)cc1)c1ccc(Cl)cc1)OCO2,-4%
CCc1ccc(NC(=O)C2CC=CCC2C(=O)O)cc1 (stereo unspecified),-13%
COC(=O)c1sccc1NC(=O)CSc1ccccc1NS(=O)(=O)c1ccc(F)cc1,-13%
COc1ccc(C(=O)N2CCCC(c3ccccc3)C2)cc1 (stereo unspecified),16µM*
CSc1ccc(CNc2ccccn2)cc1,-6%
CCn1c(C(=O)NCCCc2ccccc2)cc2sccc21,-17%
Cc1c(Cl)cccc1NC(=O)CNC(=O)c1ccccc1F,-9%
COc1ccc(C2C(C#N)=C(N)Oc3n[nH]c(C)c32)cc1Cn1nnc2ccccc21 (stereo unspecified),?
C/C(=N\NC(=O)c1cc(Cl)ccc1O)c1ccc(Br)s1,-21%
COCC1C2CC[C@H]3C(OCc4ccc(F)cc4C(F)(F)F)OC[C@]4(C)[C@H]3C2=C(CN4C(=O)OC(C)(C)C)[C@H](C)C1COC (stereo partly specified),-10%
CCOC(=O)Cc1c(C)nc2c(-c3ccccc3)c[nH]n2c1=O,?
Brc1ccc(-c2ccc(/C=N/Nc3nncc(-c4ccccc4)n3)o2)cc1,0%
CCCc1cc(=O)oc2c(CN3CCCC3)c(O)c(Cl)cc12,?
COCc1nnc(NC(=O)c2ccc(NC(=O)C(C)C)cc2)s1,-3%
CCC(C)NC(=O)CSc1nc2n[nH]c(C)c2c(=N)n1-c1ccc(OC)cc1 (stereo unspecified),-29%
CCn1nc(C(=O)OC(C(=O)c2c[nH]c3ccccc23)c2ccccc2)c2ccccc2c1=O (stereo unspecified),-24%
CC(C(=O)N1CCN(c2ccc(Cl)cc2)CC1)c1ncc(C(F)(F)F)cc1Cl (stereo unspecified),-5%
CN1CC(=O)N(CC(=O)NCc2ccc3c(c2)OCO3)C1=O,-10%

# The final 4 compounds of the section before come first, to join the parts.
SMILES,HPGD inh
CCC(C)NC(=O)CSc1nc2n[nH]c(C)c2c(=N)n1-c1ccc(OC)cc1 (stereo unspecified),-29%
CCn1nc(C(=O)OC(C(=O)c2c[nH]c3ccccc23)c2ccccc2)c2ccccc2c1=O (stereo unspecified),-24%
CC(C(=O)N1CCN(c2ccc(Cl)cc2)CC1)c1ncc(C(F)(F)F)cc1Cl (stereo unspecified),-5%
CN1CC(=O)N(CC(=O)NCc2ccc3c(c2)OCO3)C1=O,-10%
C[C@H]1Cc2c(-c3ccccc3)nc3c(c2CO1)CN(C(=O)C1CC1)CC3,-5%
CC(C)Oc1cccc(-c2cc(C(=O)N3CCN(S(C)(=O)=O)CC3)c3ccccc3n2)c1,-23%
CC(=O)c1ccc(NC(=O)C2CCN(S(=O)(=O)c3cccc4cccnc34)CC2)cc1,0%
CCCCNC(=O)C12CCC(C)(C(=O)C1Br)C2(C)C (stereo unspecified),-20%
CCN(CC)CCCN1C(=O)CSC1c1ccc2c(c1)OCO2 (stereo unspecified),-12%
O=C1CC(c2ccc(F)cc2)C2=C(CCCC2=O)N1 (stereo unspecified),-12%
O=C(COC(=O)c1ccc2[nH]c3c(c2c1)CCCC3)Nc1ccccc1,-9%
CCC(/C=C/C(C)C1CCC2C3CC=C4CC(O)CC[C@@]4(C)C3CC[C@@]12C)C(C)C (stereo partly specified),-5%
NC(=O)C(F)(F)C12OC3C4C5CC(C6C5C3C61)C42 (stereo unspecified),1%
CCOc1ccc(-c2nn3c(-c4ccc(OC)cc4)nnc3s2)cc1,-10%
CCN1CC=C2C(C#N)=C(N)C(C#N)(C#N)C(c3cc(Cl)ccc3Cl)C2C1 (stereo unspecified),?
Cc1ccc(NC(=O)C/C(N)=N/O)cc1C,-9%
CSc1ccccc1NC(=O)Cn1c(-c2cscn2)nc2ccccc21,-11%
CCCOc1ccc(NC(=O)c2c(-c3ccccc3)noc2C)cc1,-1%
COC(=O)[C@H]1[C@@H](C)N(CCc2cc(OC)c(OC)c(OC)c2)C(=O)N[C@H]1c1ccccc1,-12%
CC(=O)N[C@@H](Cc1c[nH]c2ccccc12)C(=O)OCc1cc(C(F)(F)F)cc(C(F)(F)F)c1,-17%&-24%
CCCCC(=O)Nc1ccc(F)c(Cl)c1,-10%
O=C(Nc1ccc2c(c1)OCCO2)NC1CCCCC1,-10%
Cc1ccc(CSc2nc3sc(C)c(C)c3c(=O)n2Cc2ccco2)cc1,-13%
CS(=O)(=O)c1ccc(Cn2c3c(c4cc(F)cc(F)c42)CCC[C@H]3CC(=O)O)cc1,34%[activator]
COc1ccccc1NC(=O)/C(C#N)=C/c1cc([N+](=O)[O-])ccc1N1CCCC1,-20%
CC(=O)Nc1cccc(N2C(=O)CC(Cc3ccccc3)C2=O)c1 (stereo unspecified),-6%
CCCCC(=O)NC(=S)Nc1ccccc1C(=O)Nc1ccccc1,-27%
CN1CC(=O)N(CCOc2ccccc2)C1=O,-15%
COc1ccc(S(=O)(=O)N2CC(O)CC2C(=O)OCC(=O)Nc2ccc(Cl)cn2)cc1 (stereo unspecified),-9%
C#CCSc1nc(-c2cccs2)ccc1C#N,?
Cc1cc(C(=O)N2CCN(c3ccccc3)CC2)no1,-6%
COc1cc(C2C(C#N)=C(C)NC3=C2C(=O)CC(C)(C)C3)cc(OC)c1O (stereo unspecified),-5%
Cc1ccc(Cn2cccc(NC(=O)NC3CCCCC3)c2=O)cc1,?
COc1ccc(C(=O)N(CCCO)C(C)C(=O)NC2CCCCC2)cc1OC (stereo unspecified),-2%
CCC(C)(C)n1nnnc1C(c1ccc(C)cc1)N1CCCC1 (stereo unspecified),-5%
Cc1ccccc1C(=O)NC(NCc1ccco1)C(Cl)(Cl)Cl (stereo unspecified),-7%
O=c1cc(CN2CCN(S(=O)(=O)c3ccc4c(c3)OCCO4)CC2)c2ccc(O)cc2o1,?
O=C(NCCN1CCOCC1)c1ccc(-n2c(=O)c(=O)[nH]c3ccccc32)cc1,-15%
Cc1ccc2cc(CN(CCCN(C)C)C(=O)NCc3ccccc3)c(=O)[nH]c2c1C,-15%
O=C(O)/C=C\c1ccc(Cn2ccnc2)cc1,-7%
c1ccc2c(c1)oc1c(NCCN3CCOCC3)ncnc12,-5%
O=c1c(CCc2ccccc2)nc2cncnc2n1-c1ccccc1,-28%
N#Cc1c(/N=C/c2ccco2)oc(-c2ccccc2)c1-c1ccccc1,-23%
C[C@H]1CN(CCO)CCN1c1ccccc1,-4%
CCCCCCCN,-4%
O=C(O)C1C2C=CC(C2)C1C(=O)Nc1ccc(C(=O)N2CCCCC2)cc1 (stereo unspecified),1.3µM*
COc1ccccc1C(OC(=O)c1cccs1)C(=O)NCC1CCCO1 (stereo unspecified),-3%
Cc1ccc2nc(-c3ccc(SCC(=O)Nc4nnc(C)s4)nc3)[nH]c2c1,?
Cc1ccc(S(=O)(=O)c2nc(-c3cccs3)oc2NCCCN(C)C)cc1,-10%
O=C(COC(=O)C1CCN(S(=O)(=O)c2cccc3cccnc23)CC1)c1ccc(F)cc1,-3%
Cc1ccc2c(c1)CCCN2C(=O)c1c(C)noc1C,-12%
O=C(c1cccs1)N1CCN(S(=O)(=O)Cc2ccccc2)CC1,-6%
COc1ccc(NC(=O)C(C)N(c2ccc(C)cc2)S(C)(=O)=O)cc1 (stereo unspecified),-17%
Cc1nc2sc(C(c3ccc(Cl)cc3)N3CC(C)OC(C)C3)c(O)n2n1 (stereo unspecified),-7%
COc1ccc(/C=C(/C#N)S(=O)(=O)c2ccc(C)cc2)cc1,25µM*
COc1cc(CN(C)CCc2ccccc2)ccc1OCc1ccccc1,-13%
C=CCOc1c(CNc2ncn[nH]2)cccc1OCC,6%
Cc1ccc(NS(=O)(=O)c2cccc(C(=O)N/N=C/c3c(C)nn(-c4ccccc4)c3N3CCCC3)c2)c(C)c1,-24%
CCOC(=O)c1cc(N)cc([N+](=O)[O-])c1,-15%
C=C(C)COc1ccc(-c2[nH]ncc2Oc2ccccc2OC)c(O)c1,-14%
CN(C)c1ccc(/C=C/C(=O)c2ccc(C(C)(C)C)cc2)cc1[N+](=O)[O-],?
CCCCn1c(=O)n(Cc2cccc(F)c2)c(=O)c2c1ncn2Cc1ccco1,-15%
CC1=C(C#N)C(NC(=O)c2cccc(Cl)c2)(C(F)(F)F)C(=O)N1 (stereo unspecified),-11%
CN(/N=C/c1ccc(O)cc1O)c1nc(-c2ccccc2)cc(-c2ccccc2)n1,-3%

# Reformatted: results already given
smiles	HPGD inh
COc1ccccc1C(OC(=O)c1cccs1)C(=O)NCC1CCCO1 (stereo unspecified)	-3%
Cc1ccc2nc(-c3ccc(SCC(=O)Nc4nnc(C)s4)nc3)[nH]c2c1	?

# A run of entries of the results above, for reference:
SMILES,HPGD inh
O=C(O)C1C2C=CC(C2)C1C(=O)Nc1ccc(C(=O)N2CCCCC2)cc1 (stereo unspecified),1.3µM*
COc1ccccc1C(OC(=O)c1cccs1)C(=O)NCC1CCCO1 (stereo unspecified),-3%
Cc1ccc2nc(-c3ccc(SCC(=O)Nc4nnc(C)s4)nc3)[nH]c2c1,?
Cc1ccc(S(=O)(=O)c2nc(-c3cccs3)oc2NCCCN(C)C)cc1,-10%
O=C(COC(=O)C1CCN(S(=O)(=O)c2cccc3cccnc23)CC1)c1ccc(F)cc1,-3%

# Additional records:
SMILES,HPGD inh
O=C(Nc1cnn(Cc2ccc(Cl)c(Cl)c2)c1)c1nc2ncccn2n1,20µM*
CCCCn1c(SCC(=O)N2CCCCC2)nc2cc(S(N)(=O)=O)ccc21,-20%
Cc1cc(C)c(NC(=O)C2CCCN2C)c(C)c1 (stereo unspecified),-14%
CNC(=O)/C(C#N)=C/c1c(F)cccc1Cl,-9%
Cc1ccc(C)c(/C=N/NC(=S)NCCc2ccccc2)c1,-28%
CCOc1ccc(/C=C/C(=O)c2ccccc2)cc1OC,-30%
CC1=C(C(=O)OC2CCCCC2)C(c2ccco2)C2=C(CC(C)(C)CC2=O)N1 (stereo unspecified),-21%
CN(C(=O)CCCN1C(=O)c2cccc3cccc(c23)C1=O)c1ccccc1,-24%
CC(C)(C)C(=O)Nc1ccc(Sc2ccc([N+](=O)[O-])cc2)cc1,8.9µM*
COc1cccc(NC(=O)CN(c2ccc([N+](=O)[O-])cc2)S(=O)(=O)c2ccccc2)c1,-16%
CCOc1cc(NC(=S)NC)c(OCC)cc1NC(=O)c1ccco1,?
CC1CCN(c2c(NCc3ccc(C(=O)NCc4ccco4)cc3)c(=O)c2=O)CC1,11µM*
Clc1cccc(CN2CCCCCCC2)c1Cl,-5%
COC(=O)NNC(=S)NCc1ccccc1,-11%
Cc1cc(C)cc(C(=O)N2CCC(C(N)=O)CC2)c1,-9%
COc1ccc(CCC(=O)Nc2cccc(Cl)c2)cc1,-9%
c1ccc(-c2cc(-c3nc(-c4cccnc4)no3)c3ccccc3n2)cc1,-6%
COc1ccc(NC(=O)/C(Cl)=C(/Cl)S(=O)Cc2ccccc2)cn1 (stereo unspecified),?
N#Cc1cnn(Cc2ccccc2)c1/N=C/N1CCOCC1,-9%
CCN(CC)c1ccc(/C=N/Nc2nc3ccccc3[nH]2)c(O)c1,?
COCCCNC(=S)N(Cc1ccccc1)Cc1ccccc1,-2%

# Screening data deposited in PubChem BioAssay by National Center for Advancing Translational Sciences (NCATS).
